Compound activity from PubChem.
NOMO-1 viab = STK33 inhibitor candidate reducing NOMO-1 cell viability. NOMO-1 AML viability, CellTiter-Glo luminescence, 72 h. inhibition, % (no concentration beside the values). hit rate 7.5% among 37,000. AID 2330;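 active = most replicates above 80%; inconclusive = exactly half above 80%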;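 note: wells of about 30 µL received 25 nL stock; 0% = median of vehicle wells and 100% = reference inhibitor level; the first replicate is given; inactives centre near 10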
* marks the source's active call; other numbers are inactive results. A portion of the library. The share of hits here may be higher or lower than overall.

CCOC(=O)c1nnn2c1nc(N(Cc1ccccc1)Cc1ccccc1)c1ccccc12 was read as NOMO-1 viab 76.
For C[C@@H]1CN([C@H](C)CO)C(=O)Cc2cc(NS(=O)(=O)c3ccc(Cl)cc3)ccc2O[C@H]1CN(C)C(=O)Nc1ccc(F)cc1 the results were NOMO-1 viab 5.
`C[C@H](CO)N1C[C@H](C)[C@H](CN(C)Cc2ccc(Cl)c(Cl)c2)Oc2c(NC(=O)CCCCCC(=O)Nc3ccccc3N)cccc2C1=O` gave NOMO-1 viab 114*.
Cc1noc(C)c1NC(=O)N(C)C[C@H]1Oc2c(NC(=O)NC3CCCCC3)cccc2C(=O)N([C@@H](C)CO)C[C@H]1C was read as NOMO-1 viab 10.
CC(C)NC(=O)N(C)C[C@@H]1Oc2ccc(NC(=O)C3CCCCC3)cc2C(=O)N([C@H](C)CO)C[C@@H]1C was read as NOMO-1 viab 7.
C[C@@H]1CN([C@@H](C)CO)C(=O)c2cccc(NS(=O)(=O)c3ccc(Cl)cc3)c2O[C@@H]1CN(C)Cc1ccc(-c2ccccc2)cc1 was read as NOMO-1 viab 115*.
`C[C@H](CO)N1C[C@H](C)[C@H](CN(C)CC2CCCCC2)Oc2ccc(NC(=O)CCN3CCOCC3)cc2CC1=O` gave NOMO-1 viab 3.
Screening C[C@@H]1CN([C@H](C)CO)C(=O)c2cccc(NC(=O)C3CC3)c2O[C@H]1CN(C)S(=O)(=O)c1cccs1 returned NOMO-1 viab -13.
Screening Cc1noc(C)c1NC(=O)N(C)C[C@H]1Oc2ccc(NC(=O)CCN3CCOCC3)cc2CC(=O)N([C@@H](C)CO)C[C@@H]1C returned NOMO-1 viab -13.
Screening C[C@H]1CN([C@@H](C)CO)C(=O)c2cc(NC(=O)C3CC3)ccc2O[C@H]1CN(C)S(=O)(=O)c1cn(C)cn1 returned NOMO-1 viab 11.
Cc1ccc(S(=O)(=O)Nc2cccc3c2O[C@H](CN(C)S(=O)(=O)c2cccs2)[C@H](C)CN([C@@H](C)CO)C3=O)cc1 was read as NOMO-1 viab 38.
`COc1ccc(NC(=O)N(C)C[C@H]2OCCCC[C@@H](C)Oc3ccc(NS(=O)(=O)c4cn(C)cn4)cc3C(=O)N([C@H](C)CO)C[C@@H]2C)cc1` gave NOMO-1 viab -6.

Continued, overlapping the part above by six compounds.
`C[C@H](CO)N1C[C@H](C)[C@H](CN(C)CC2CCCCC2)Oc2ccc(NC(=O)CCN3CCOCC3)cc2CC1=O` gave NOMO-1 viab 3.
Screening C[C@@H]1CN([C@H](C)CO)C(=O)c2cccc(NC(=O)C3CC3)c2O[C@H]1CN(C)S(=O)(=O)c1cccs1 returned NOMO-1 viab -13.
Screening Cc1noc(C)c1NC(=O)N(C)C[C@H]1Oc2ccc(NC(=O)CCN3CCOCC3)cc2CC(=O)N([C@@H](C)CO)C[C@@H]1C returned NOMO-1 viab -13.
Screening C[C@H]1CN([C@@H](C)CO)C(=O)c2cc(NC(=O)C3CC3)ccc2O[C@H]1CN(C)S(=O)(=O)c1cn(C)cn1 returned NOMO-1 viab 11.
Cc1ccc(S(=O)(=O)Nc2cccc3c2O[C@H](CN(C)S(=O)(=O)c2cccs2)[C@H](C)CN([C@@H](C)CO)C3=O)cc1 was read as NOMO-1 viab 38.
`COc1ccc(NC(=O)N(C)C[C@H]2OCCCC[C@@H](C)Oc3ccc(NS(=O)(=O)c4cn(C)cn4)cc3C(=O)N([C@H](C)CO)C[C@@H]2C)cc1` gave NOMO-1 viab -6.
CCn1c(SCC(=O)Nc2ccccc2N2CCOCC2)nnc1-c1ccccc1O was read as NOMO-1 viab 22.
For COc1ccc(S(=O)(=O)N(C)C[C@@H]2Oc3ccc(NC(=O)Cc4ccccc4)cc3C(=O)N([C@H](C)CO)C[C@@H]2C)cc1 the results were NOMO-1 viab 14.
Screening Cc1cccc(OCCn2c(S(=O)(=O)O)nc3ccccc32)c1 returned NOMO-1 viab -17.
`C[C@@H]1CN([C@@H](C)CO)C(=O)c2cccc(NC(=O)CCCCCC(=O)Nc3ccccc3N)c2O[C@H]1CN(C)Cc1ccccc1` gave NOMO-1 viab 122*.
Screening C[C@H]1CN([C@@H](C)CO)C(=O)Cc2cc(NS(=O)(=O)c3cccs3)ccc2O[C@@H]1CN(C)Cc1ccc(Cl)c(Cl)c1 returned NOMO-1 viab inconclusive.
`CC(C)NC(=O)Nc1ccc2c(c1)C(=O)N([C@@H](C)CO)C[C@@H](C)[C@@H](CN(C)C(=O)Nc1ccc3c(c1)OCO3)O2` gave NOMO-1 viab 13.
COc1ccc(/C=C/C(=O)O[C@@H]2[C@@H](OC(C)=O)[C@@H](OC(C)=O)[C@H](O[C@H]3[C@@H]4C=CO[C@@H](O[C@@H]5O[C@H](CO)[C@@H](O)[C@H](O)[C@H]5O)[C@@H]4[C@@]4(CO)O[C@@H]34)O[C@H]2C)cc1 was read as NOMO-1 viab 6.
Screening C[C@H]1CN([C@@H](C)CO)C(=O)c2cccc(NC(=O)Nc3ccc(C(F)(F)F)cc3)c2O[C@H]1CN(C)Cc1ccc(C(=O)O)cc1 returned NOMO-1 viab 7.
Cc1ccc(S(=O)(=O)N(C)C[C@H]2Oc3ccc(NS(=O)(=O)c4cccs4)cc3CC(=O)N([C@@H](C)CO)C[C@H]2C)cc1 was read as NOMO-1 viab 6.
COc1ccc(S(=O)(=O)Nc2ccc3c(c2)C(=O)N([C@H](C)CO)C[C@H](C)[C@H](CN(C)C(=O)NC(C)C)OCCCC[C@@H](C)O3)cc1 was read as NOMO-1 viab -6.
For COc1ccc(NC(=O)Nc2cccc3c2O[C@@H](CN(C)S(C)(=O)=O)[C@H](C)CN([C@@H](C)CO)C3=O)cc1 the results were NOMO-1 viab -1.
For C[C@H]1CN([C@@H](C)CO)C(=O)c2cc(NC(=O)NC3CCCCC3)ccc2O[C@@H]1CN(C)S(=O)(=O)c1cccs1 the results were NOMO-1 viab 16.
COc1ccc(NC(=O)N(C)C[C@@H]2Oc3ccc(N(C)C)cc3C(=O)N([C@H](C)CO)C[C@H]2C)cc1 was read as NOMO-1 viab 25.
Screening COC(=O)COc1cc(Cl)c(C2NC(=S)NC(c3ccccc3)=C2C(C)=O)cc1OC (stereo unspecified) returned NOMO-1 viab 117*.
`CCNC(=O)CN(c1ccc(Br)c(C)c1)S(C)(=O)=O` gave NOMO-1 viab 19.
For COc1cc(Br)c(S(=O)(=O)NCCOc2ccc(C(C)(C)C)cc2)cc1OC the results were NOMO-1 viab 11.
Screening CNC[C@H]1Oc2c(NS(=O)(=O)c3ccc(Cl)cc3)cccc2C(=O)N([C@@H](C)CO)C[C@H]1C returned NOMO-1 viab 2.
Screening C[C@@H]1CN([C@H](C)CO)C(=O)c2cccc(NC(=O)Nc3ccc4c(c3)OCO4)c2O[C@@H]1CN(C)C(=O)Nc1cccc2ccccc12 returned NOMO-1 viab 23.
`C[C@@H]1CN([C@H](C)CO)C(=O)Cc2cc(NC(=O)CCCCCC(=O)Nc3ccccc3N)ccc2O[C@@H]1CN(C)Cc1ccc(Oc2ccccc2)cc1` gave NOMO-1 viab 128*.
Screening C[C@@H]1CN([C@H](C)CO)C(=O)Cc2cc(NC(=O)CCN3CCOCC3)ccc2O[C@H]1CN(C)Cc1ccccc1 returned NOMO-1 viab -15.
`Cc1cc(C(=O)Nc2cccc3c2O[C@H](CN(C)Cc2ccc(-c4ccccc4)cc2)[C@H](C)CN([C@@H](C)CO)C3=O)n(C)n1` gave NOMO-1 viab 16.
Screening C[C@@H]1CN([C@H](C)CO)C(=O)c2cccc(NC(=O)Nc3ccccc3)c2O[C@@H]1CN(C)Cc1ccc(C(=O)Nc2ccccc2N)cc1 returned NOMO-1 viab 128*.
`C[C@@H]1CN([C@@H](C)CO)C(=O)c2cc(NC(=O)Nc3cccc4ccccc34)ccc2O[C@H]1CN(C)S(=O)(=O)c1cccs1` gave NOMO-1 viab 18.
`CCOc1ccc(-n2c(SCc3nc(-c4cccs4)no3)nnc2-c2ccncc2)cc1` gave NOMO-1 viab 10.
Screening Cc1noc(C)c1NC(=O)Nc1ccc2c(c1)C(=O)N([C@@H](C)CO)C[C@@H](C)[C@@H](CN(C)Cc1ccc(C(F)(F)F)cc1)O2 returned NOMO-1 viab -8.
COc1ccc(CN(C)C[C@@H]2Oc3ccc(NC(=O)CCCCCC(=O)Nc4ccccc4N)cc3CC(=O)N([C@H](C)CO)C[C@@H]2C)cc1 was read as NOMO-1 viab 124*.
Screening C[C@H]1CN([C@@H](C)CO)C(=O)c2cccc(NC(=O)Nc3ccccc3)c2O[C@@H]1CN(C)S(C)(=O)=O returned NOMO-1 viab -1.
Screening Cc1ccc(NC(=O)c2ccco2)c(NC(=O)COc2ccccc2)c1 returned NOMO-1 viab 16.
For CNC[C@@H]1OCCCC[C@@H](C)Oc2ccc(NC(=O)c3ccccc3)cc2C(=O)N([C@H](C)CO)C[C@@H]1C the results were NOMO-1 viab 6.
Cc1noc(C)c1NC(=O)N(C)C[C@@H]1Oc2ccc(NS(C)(=O)=O)cc2CC(=O)N([C@@H](C)CO)C[C@@H]1C was read as NOMO-1 viab -2.
Screening COc1ccc(NC(=O)C23CC4CC(C2)CC(C(=O)Nc2ccc(OC)c(OC)c2)(C4)C3)cc1OC returned NOMO-1 viab 30.
Screening Cc1cccc(C)c1NC(=O)CN(C1CCCCC1)S(=O)(=O)c1ccc(Cl)cc1 returned NOMO-1 viab 12.
For C[C@H](CO)N1C[C@H](C)[C@@H](CN(C)Cc2ccc(C(=O)O)cc2)Oc2ccc(NC(=O)Nc3cccc4ccccc34)cc2C1=O the results were NOMO-1 viab -3.
Screening COc1cc(NC(=O)COc2cc(C)c(Cl)c(C)c2)ccc1NC(=O)c1ccco1 returned NOMO-1 viab -17.
For COc1ccc(CN(C)C[C@H]2Oc3c(NS(=O)(=O)c4ccc(OC)cc4)cccc3C(=O)N([C@@H](C)CO)C[C@H]2C)cc1 the results were NOMO-1 viab 14.
Cc1ccc(S(=O)(=O)N(C)C[C@@H]2Oc3ccc(NC(=O)CCCN(C)C)cc3CC(=O)N([C@H](C)CO)C[C@H]2C)cc1 was read as NOMO-1 viab 1.
`Cc1ccc(-n2c(SCC(=O)Nc3ccc(Br)cc3)nnc2-c2ccco2)cc1` gave NOMO-1 viab 26.
C[C@@H]1CN([C@@H](C)CO)C(=O)Cc2cc(NC(=O)NC3CCCCC3)ccc2O[C@@H]1CN(C)C was read as NOMO-1 viab 3.
For CCc1cc(C(=O)OC)c(NC(=O)c2cc(-c3cccnc3)nc3ccc(Br)cc23)s1 the results were NOMO-1 viab 89*.
For C[C@@H]1CN([C@H](C)CO)C(=O)c2cc(NS(=O)(=O)c3ccc(Cl)cc3)ccc2O[C@@H]1CN(C)C the results were NOMO-1 viab 32.
For COc1ccc(S(=O)(=O)N(C)C[C@H]2Oc3c(NS(=O)(=O)c4ccc(Cl)cc4)cccc3C(=O)N([C@@H](C)CO)C[C@H]2C)cc1 the results were NOMO-1 viab 7.
`COC(=O)c1ccccc1NC(=O)CN(c1cc(Cl)c(Cl)cc1Cl)S(C)(=O)=O` gave NOMO-1 viab -9.
`COc1ccc(S(=O)(=O)N(C)C[C@H]2Oc3c(NC(=O)Nc4c(C)noc4C)cccc3C(=O)N([C@H](C)CO)C[C@H]2C)cc1` gave NOMO-1 viab 11.
For C[C@@H]1CN([C@H](C)CO)C(=O)Cc2cc(NC(=O)Cc3ccccc3)ccc2O[C@H]1CN(C)C(=O)Nc1cccc2ccccc12 the results were NOMO-1 viab 18.
For Cc1cc(C)c(C)c(S(=O)(=O)NCCC(=O)O)c1C the results were NOMO-1 viab -8.
COc1ccc(NC(=O)Nc2ccc3c(c2)CC(=O)N([C@H](C)CO)C[C@@H](C)[C@@H](CN(C)S(=O)(=O)c2cn(C)cn2)O3)cc1 was read as NOMO-1 viab 1.
Screening C[C@H](CO)N1C[C@H](C)[C@H](CN(C)S(=O)(=O)c2ccc(Cl)cc2)Oc2c(NS(C)(=O)=O)cccc2C1=O returned NOMO-1 viab 9.
C[C@H]1CN([C@@H](C)CO)C(=O)c2cc(NS(=O)(=O)c3ccccc3)ccc2O[C@@H]1CN(C)S(C)(=O)=O was read as NOMO-1 viab -1.
For CCOC(=O)N1CCc2c(sc3[nH]c(=S)n(-c4ccccc4)c(=O)c23)C1 the results were NOMO-1 viab 26.
`C[C@@H]1CN([C@H](C)CO)C(=O)Cc2cc(NC(=O)CCN3CCOCC3)ccc2O[C@@H]1CN(C)C(=O)Nc1cccc2ccccc12` gave NOMO-1 viab 16.
`C[C@H](CO)N1C[C@H](C)[C@@H](CN(C)CC2CC2)Oc2c(NS(=O)(=O)c3cccs3)cccc2C1=O` gave NOMO-1 viab 23.
Cc1ccc(Cl)cc1NC(=O)CSc1nnc(-c2ccc([N+](=O)[O-])cc2)n1-c1ccccc1 was read as NOMO-1 viab 35.
For Cc1noc(C)c1NC(=O)Nc1ccc2c(c1)C(=O)N([C@@H](C)CO)C[C@H](C)[C@@H](CN(C)Cc1ccc(C(F)(F)F)cc1)O2 the results were NOMO-1 viab 10.
Cc1noc(C)c1NC(=O)Nc1cccc2c1O[C@@H](CN(C)S(=O)(=O)c1ccc(Cl)cc1)[C@H](C)CN([C@@H](C)CO)C2=O was read as NOMO-1 viab 20.
COc1ccc(C)cc1S(=O)(=O)N1CCC(C(=O)Nc2cccc(C(C)=O)c2)CC1 was read as NOMO-1 viab 4.
Screening Cc1nnc(SCc2nnnn2-c2ccccc2)[nH]c1=O returned NOMO-1 viab 15.
`CCc1cccc(C)c1NC(=O)CN(C)S(=O)(=O)c1ccccc1` gave NOMO-1 viab 22.
Cc1ccc(-c2noc(CSc3nc(C)c(C)c(=O)[nH]3)n2)cc1 was read as NOMO-1 viab 16.
O=C(Nc1ccc(S(=O)(=O)Nc2nccs2)cc1)C1COc2ccccc2O1 (stereo unspecified) was read as NOMO-1 viab 20.
For CC(C)NC(=O)Nc1cccc2c1O[C@H](CN(C)C(=O)Nc1ccc3c(c1)OCO3)[C@@H](C)CN([C@H](C)CO)C2=O the results were NOMO-1 viab 26.
